ALR inh – blocks human ALR sulfhydryl oxidase activity; hit rate 3.8% among 290,000; inhibition, % (no concentration beside the values); purified ALR, DTT oxidation, H2O2 HRP-luminol luminescence; AID 485317;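 active = mean and each replicate at 75% or more; inconclusive = only one of the two met; inactive = neither met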;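 note: stock transfer was 7.5 nL into about 7.5 µL; 0% = neutral wells and 100% = wells with inactivated enzyme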
Target sequence (P55789 whole entry, looked up): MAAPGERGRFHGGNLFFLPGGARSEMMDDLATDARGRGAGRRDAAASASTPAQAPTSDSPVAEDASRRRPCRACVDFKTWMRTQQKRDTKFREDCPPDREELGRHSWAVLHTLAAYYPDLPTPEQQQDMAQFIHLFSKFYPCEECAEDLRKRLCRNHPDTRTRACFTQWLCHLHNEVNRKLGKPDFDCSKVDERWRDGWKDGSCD
MLL AF4-AF9 inh – MLL-AF4/AF9 protein interaction inhibition. AlphaScreen, biotin-AF4 peptide binding to FLAG-AF9. inhibition, % at 10 µM. hit rate 0.47% among 350,000;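 active = every replicate reaching a set inhibition limit, whatever the replicate mean, cut at about 25% in these data; inconclusive = mean inhibition reaches that limit but some replicates miss it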;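 note: 0% = plate neutral control median and 100% = total signal loss; the record names both 10 and 1 µM as test concentration; the first replicate is given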
Target sequence (P42568 whole entry, looked up): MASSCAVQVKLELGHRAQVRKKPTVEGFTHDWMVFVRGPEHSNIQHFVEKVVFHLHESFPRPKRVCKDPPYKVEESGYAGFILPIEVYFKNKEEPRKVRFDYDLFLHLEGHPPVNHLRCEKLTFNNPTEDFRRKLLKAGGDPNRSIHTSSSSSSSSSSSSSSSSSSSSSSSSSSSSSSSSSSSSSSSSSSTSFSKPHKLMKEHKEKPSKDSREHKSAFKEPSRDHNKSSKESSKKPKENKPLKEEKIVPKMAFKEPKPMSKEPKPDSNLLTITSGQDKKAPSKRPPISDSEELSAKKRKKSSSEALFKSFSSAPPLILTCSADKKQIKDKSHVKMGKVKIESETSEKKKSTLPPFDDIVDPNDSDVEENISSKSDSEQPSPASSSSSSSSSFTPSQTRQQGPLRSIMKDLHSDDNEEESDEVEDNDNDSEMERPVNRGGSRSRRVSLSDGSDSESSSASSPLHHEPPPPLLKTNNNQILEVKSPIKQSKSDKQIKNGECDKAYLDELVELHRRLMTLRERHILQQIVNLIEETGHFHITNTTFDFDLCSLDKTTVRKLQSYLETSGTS
FGF22 binding – binders of recombinant human FGF22 by thermal shift | SYPRO orange fluorescence; percent of sucrose octasulfate shift, DMSO zero | calls only at 9.99 µM | hit rate 1.5% among 340,000;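 active = melting point raised past a set limit in the mean and every replicate; inconclusive = no clear call; three in four hits are not shown here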
Target sequence (Q9HCT0 whole entry, looked up): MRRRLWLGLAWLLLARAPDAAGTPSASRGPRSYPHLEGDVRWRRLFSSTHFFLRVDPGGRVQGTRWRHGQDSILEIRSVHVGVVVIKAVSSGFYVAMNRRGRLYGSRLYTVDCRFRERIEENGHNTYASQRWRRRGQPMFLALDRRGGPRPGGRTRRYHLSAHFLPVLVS
RanGTP-Imp inh – disruptors of Ran-importin-beta complex formation – biochemical, FRET, CFP-Ran, YFP-importin-beta, homogeneous, primary screen; cell-free CFP-Ran/YFP-importin-beta FRET ratio; inhibition, % (concentration not given with the values); hit rate 1.1% among 300,000; AID 2216;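 active = most replicates above 15%; inconclusive = exactly half above 15%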;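 note: 0% = DMSO wells and 100% = Ran loaded with GDP instead of GTP; wells of about 40 µL received 100 nL stock; the first replicate is given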
rRNA inh HTS – inhibitors of bacterial rRNA selective over humanized ribosomes; E. coli WT GFP vs humanized-ribosome RFP mutants, fluorescence, 24 h; stronger effect = lower value; DMSO median 0, no signal -100; GFP signal change (wild-type ribosome), % (test concentration not listed); hit rate 1.6% among 350,000;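 active = significant combined selectivity score with lowered wild-type GFP, culture density cut under 30%, mutant RFP and density less affected; inactive = any of these conditions unmet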; note: one replicate is shown; some compounds called inactive have numbers as strong as hits
Calb FLC – affects C. albicans growth with fluconazole; C. albicans CaCi-2 (fluconazole-resistant clinical isolate) + fluconazole, Alamar Blue growth, 48 h; growth inhibition, % (no concentration beside the values); hit rate 0.57% among 300,000; AID 1979;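 active = most replicates above 75%; inconclusive = exactly half above 75%; inactive = most below 75%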;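 note: all wells also contain fluconazole at 8 µg/ml as a sub-toxic cotreatment; 0% = median of DMSO wells and 100% = median of geldanamycin control wells; wells of about 8 µL received 7.5 nL stock; the first replicate is given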
Beta apoptosis – beta cell apoptosis inhibition; INS-1E cytokine-induced death, ATP luminescence, 48 h; percent of positive-control rescue, neutral wells zero; protection from apoptosis, % (test concentration not listed); hit rate 0.8% among 300,000;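 active = all replicates at 75% or more, or half of them and the mean; inconclusive = half reach 75% but not the mean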;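 note: 0% = cytokine-treated negative control wells and 100% = positive control rescue; higher means more ATP so stronger rescue from cytokine killing; wells of about 40 µL received 100 nL stock; the first replicate is given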
T cruzi repl – blocks replication of Trypanosoma cruzi. T. cruzi beta-gal in NIH3T3, luminescence, 90 h. inhibition, % (concentration not given with the values). hit rate 1.4% among 300,000;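 active = mean inhibition across valid replicates above about 55%, limit read from the data; inconclusive = mean below that limit but half or more replicates reach it; inactive = mean below it, under half of replicates reach it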;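 note: signal also drops with host cell toxicity which is not excluded here; 0% = plate median of DMSO wells and 100% = zero luminescence signal; higher percent means less beta-gal luminescence so fewer parasites; stock transfer was 50 nL into about 50 µL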
rRNA inh HTS OD600 – further read-out of rRNA inh HTS, marked with its call; OD600 change, %; measured here: OD600 growth;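 optical density of the mix in the first replicate; 0 = DMSO median and -100 = no signal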
rRNA inh HTS RFP – recorded beside rRNA inh HTS, whose call it bears; RFP signal change, %; measured here: RFP humanized mutant strains;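 first replicate; 0 = DMSO median and -100 = no signal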
An asterisk follows results filed as active; i = inactive; ? = inconclusive; nt = not tested or not shown. An excerpt, so the mix of outcomes need not match the whole.

SMILES | ALR inh | MLL AF4-AF9 inh | FGF22 binding | RanGTP-Imp inh | rRNA inh HTS | rRNA inh HTS OD600 | rRNA inh HTS RFP | Calb FLC | Beta apoptosis | T cruzi repl
CC(C)C(NC(=O)c1ccc(C(C)(C)C)cc1)C(=O)OCC(=O)NC(=O)Cc1ccccc1 (stereo not drawn) | -9 | 2.8 | i | -1.3 | nt | nt | nt | -2 | nt | -8
Cc1nn(Cc2ccccc2)c2sc(C(=O)NCc3cccnc3)cc12 | 6 | nt | nt | -4.1 | nt | nt | nt | -12 | -9 | 7
COc1ccc(CCNC(=O)C(=O)c2cn(CC(=O)N3CCOCC3)c3ccccc23)cc1 | -9 | 0.6 | i | 1.7 | -4 | 3 | 4.3 | -24 | 1 | 11
Cc1cc(N2C(=O)C(O)=C(C(=O)c3cc4ccccc4o3)C2c2cccs2)no1 (stereo not drawn) | -1 | 9.0 | i | 42* | 1 | -1 | -0.6 | ? | 0 | -22
CCOC(=O)C1(CC2CCCCO2)CCN(Cc2cn[nH]c2-c2cccc(F)c2)CC1 (stereo not drawn) | -7 | -12 | i | -3.0 | 5 | 5 | -7.1 | 4 | -11 | 5
O=c1[nH]c(-c2ccc(Cl)cc2)nc(=S)[nH]1 | 33 | -1.5 | i | -1.3 | 0 | -2 | 4.5 | -17 | -1 | -14
C=CCNc1nc(C(=O)OCC(=O)c2cccc(Br)c2)cs1 | 3 | -1.6 | i | nt | -3 | 3 | 0.8 | nt | -6 | nt
O=C1CC(NNC(=O)c2ccccc2)C(=O)N1 (stereo not drawn) | 3 | nt | nt | ? | nt | nt | nt | 1 | nt | -18
O=C(Nc1cc(S(=O)(=O)N2CCOCC2)ccc1N1CCCC1)c1cccnc1Cl | -4 | -2.2 | i | 1.2 | 3 | 2 | -5.3 | 2 | -4 | -6
Cc1onc(-c2c(Cl)cccc2Cl)c1C(=O)NCc1ccccn1 | -7 | nt | nt | 4.0 | nt | nt | nt | -14 | -5 | 19
Cc1cccc(C)c1NC(=O)CSc1nnc(-c2ccco2)c(-c2ccco2)n1 | 99* | nt | nt | 2.3 | nt | nt | nt | 2 | -15 | -6
CCCCOC(=O)Nc1ccc2c(C)cc(=O)oc2c1 | -10 | nt | nt | -5.1 | nt | nt | nt | 28 | 6 | 4
CCS(=O)(=O)N1CCCC(C(=O)NCCCOC)C1 (stereo not drawn) | -6 | nt | nt | 4.0 | nt | nt | nt | 6 | 2 | -29
O=C(CN1C(=O)NC2(CCCc3ccccc32)C1=O)NC1CCCCC1 (stereo not drawn) | 2 | -1.9 | i | 2.9 | 5 | 9 | -1.9 | 2 | -5 | 4
CCC(=O)c1ccc(OCC(=O)Nc2ccccc2C(=O)NC2CC2)cc1 | -2 | -0.6 | i | nt | 6 | 4 | -1.7 | nt | -1 | nt
Nc1c(/C=C2/C=CC(=O)C(O)=C2)c(=O)nc2sc(CC(=O)N3CCCCC3)nn12 | 99* | -1.2 | i | 2.9 | 7 | -13 | 0.9 | -3 | 1 | -11
CCOc1cc(-c2c(C#N)c(=O)[nH]c3c2c(C)nn3-c2ccc(F)cc2)ccc1O | -5 | nt | nt | -3.2 | nt | nt | nt | 1 | nt | -6
COc1ccccc1N=C1NC(=O)/C(=C/c2ccc(N(C)C)cc2)S1 | 5 | 9.5 | i | -91 | 2 | -8 | 6.8 | -3 | 7 | -2
COCc1nnc(NC(=O)c2cccc(NC(=O)C(C)C)c2)s1 | 0 | -1.9 | i | -0.4 | -18 | -6 | -13 | -3 | -3 | -13
COc1ccc(S(=O)(=O)N(CC(=O)Nc2ccc3c(c2)OCO3)c2ccccc2OC)cc1 | -6 | nt | nt | -1.5 | nt | nt | nt | -2 | -1 | 25
CC1=C(C(=O)OCC2CCCO2)C(c2ccc(C)cc2)C2=C(CC(C)(C)CC2=O)N1 (stereo not drawn) | -5 | -6.1 | i | 5.1 | -18 | -6 | 0.4 | -20 | -7 | 7
CN(c1ccccc1)S(=O)(=O)c1ccc(Cl)c(C(=O)Nc2nn[nH]n2)c1 | 2 | -0.4 | i | -5.0 | 11 | 3 | 2.7 | -2 | 2 | -7
O=C(O)C1C2C=CC(C2)C1C(=O)NCc1ccccc1F (stereo not drawn) | -12 | 6.2 | i | -2.4 | 5 | 1 | 1.4 | -1 | -8 | -7
CC(=O)Nc1ccc(NC(=O)CSc2nnc(-c3cccs3)n2N)cc1 | -5 | -1.5 | nt | 2.1 | 9 | 9 | 0.2 | -1 | -1 | -4
Cc1cc(-n2c(C)cc(C(=O)COC(=O)CN=C3NS(=O)(=O)c4ccccc43)c2C)no1 | -2 | nt | nt | 2.3 | nt | nt | nt | 1 | -3 | -12
C=Cn1c(C(=O)O)ccc1-c1ccc(CC)cc1 | 6 | -4.1 | i | 1.5 | -5 | -5 | -7.1 | 0 | -6 | -19
Cc1ccc([N+](=O)[O-])c(OCc2ncc(Cl)n2C)c1 | nt | 3.5 | i | -0.8 | 7 | 10 | -0.7 | 15 | -2 | -1
COC(=O)c1c(NC(=O)C2COc3ccccc3O2)sc2c1CCN(Cc1ccccc1)C2 (stereo not drawn) | -10 | 8.5 | i | 69* | 6 | 0 | -0.2 | -8 | -4 | 43
COc1ccc2c(c1)C(=O)N(c1ccc(C)cc1C)C(=O)C2 | 8 | -1.1 | i | 3.6 | 7 | -1 | 1.2 | -4 | -1 | -11
Cc1cc(C)c2c(n1)SCC(=O)N2CC(=O)Nc1ccc(F)cc1 | nt | -1.4 | i | 2.4 | 8 | 6 | 1.1 | -4 | nt | -8
CC1CC(C)CN(CCCOc2ccccc2[N+](=O)[O-])C1 (stereo not drawn) | -44 | 3.3 | i | 5.2 | 11 | 6 | -3.9 | -3 | -5 | 4
CN(CCNC(=O)C1CCN(S(=O)(=O)N2CCOCC2)CC1)CCc1ccccc1 | 0 | nt | nt | -2.9 | nt | nt | nt | 0 | -1 | 49
CCCNc1nc(Nc2ccc(C)cc2)nc(N2CCCC2)n1 | ? | nt | nt | -0.3 | nt | nt | nt | 29 | 38 | 20
COc1cc(NC(=O)COC(=O)CSc2cc(C)ccc2C)c(C)cc1[N+](=O)[O-] | nt | -1.6 | i | ? | 1 | 6 | 0.0 | -21 | -7 | -34
CC(C)CN(C(=O)COC(=O)Cc1c[nH]c2ccccc12)C1CCS(=O)(=O)C1 (stereo not drawn) | -4 | nt | nt | -4.3 | nt | nt | nt | 9 | -8 | 0
O=C(CCc1c[nH]c2ccccc12)N[C@@H](Cc1c[nH]c2ccc(O)cc12)C(=O)O | 17 | 0.5 | i | 5.7 | 4 | 9 | 0.8 | 5 | -8 | -14
COc1ccccc1N1CCN(C(=O)C2CC(=O)N(c3ccccc3)C2)CC1 (stereo not drawn) | 14 | -1.2 | i | -2.0 | 0 | -2 | -1.6 | 0 | -8 | 3
CC1(c2nnc(Cc3ccccc3)o2)CC(c2ccc(Br)cc2)=NO1 (stereo not drawn) | nt | nt | nt | 3.0 | nt | nt | nt | -9 | 1 | -16
O=[N+]([O-])c1cc(S(=O)(=O)/N=C(/c2ccccc2)N2CCOCC2)ccc1Cl | -32 | 1.0 | i | 2.5 | nt | nt | nt | -16 | -1 | -5
O=C(NNS(=O)(=O)c1ccccc1)c1cc2cc3ccccc3nc2s1 | 57 | nt | nt | 2.8 | nt | nt | nt | -1 | 0 | -7
Cc1ccc(S(=O)(=O)Nc2ccc(C(=O)N3CCN(c4ccccc4O)CC3)cc2)cc1[N+](=O)[O-] | nt | 2.6 | i | 1.0 | -1 | -11 | 0.7 | 40 | 7 | 15
CC(=O)Cc1cc(O)c2ccccc2c1OC(=O)c1ccc(Br)cc1 | -54 | nt | i | 0.5 | -14* | 0.2* | 5.7* | 1 | 108* | -24
CC(C)CN(C(=O)CSc1ncnc2ccccc12)C1CCS(=O)(=O)C1 (stereo not drawn) | -2 | ? | i | nt | 6 | 15 | 0.5 | nt | -10 | nt
Cc1ccc(C)n1-n1cnc2sc(-c3ccccc3)cc2c1=O | -7 | nt | nt | -0.3 | nt | nt | nt | -26 | -10 | 6
CC(C)Sc1nnc(NC(=O)c2ccc3c(c2)OCO3)s1 | 10 | -2.1 | i | 1.8 | 12 | 6 | -0.3 | -1 | nt | 1
CCc1ccc2[nH]c(=O)c(CN(Cc3ccccc3OC)C(=O)Nc3ccccc3OC)cc2c1 | 3 | nt | nt | 5.4 | nt | nt | nt | 0 | 8 | 62*
CC(C)N(Cc1ccccc1)S(=O)(=O)c1ccc2c(c1)NC(=O)CO2 | -26 | 1.2 | i | 0.1 | -34 | -40 | -6.1 | 0 | nt | -5
Cc1ccc(/C=C2/SC(=S)N(c3ccc(S(=O)(=O)Nc4nccs4)cc3)C2=O)cc1 | -6 | -2.6 | i | -0.1 | 12 | 8 | 32 | -9 | -6 | -6
CC1CCCC(NC(=O)CSc2nnc(C(F)(F)F)n2C)C1C (stereo not drawn) | -4 | -0.5 | i | nt | 21 | 11 | 1.1 | nt | 2 | nt
OCCC1CN(CC#Cc2ccccc2)CCN1Cc1ccccc1F (stereo not drawn) | nt | 4.1 | i | -3.5 | -1 | -8 | 1.6 | 8 | -6 | -4
More results follow.
SMILES | ALR inh | MLL AF4-AF9 inh | FGF22 binding | RanGTP-Imp inh | rRNA inh HTS | rRNA inh HTS OD600 | rRNA inh HTS RFP | Calb FLC | Beta apoptosis | T cruzi repl
COc1ccc2nc(-c3ccccc3)nc(C3CCCCC3)c2c1 | 0 | 2.8 | i | -0.9 | 4 | 7 | -1.9 | 0 | 5 | 1
O=C(O)CN1C(=O)/C(=C/c2ccsc2)SC1=S | 30 | -4.6 | i | -0.2 | 1 | 9 | 0.5 | 0 | nt | -2
COC(=O)c1ccc(Cn2cnc3cnccc32)cc1 | -11 | -1.2 | i | 0.4 | 6 | 9 | -1.2 | -3 | -1 | -7
Cc1ccc(C(C(=O)NCc2ccc(F)cc2)N(Cc2ccco2)C(=O)c2snc(C(N)=O)c2N)o1 (stereo not drawn) | nt | 4.7 | i | 7.5 | -5 | -4 | 1.5 | -2 | -2 | 6
COC(CNC(=O)C1CC(=O)N(CCc2ccc(C)cc2)C1)OC (stereo not drawn) | -6 | -20 | i | 0.4 | 10 | 10 | 0.9 | -11 | -2 | -4
Cc1cc(NS(=O)(=O)c2ccc(NC(=O)c3oc4ccccc4c3C)cc2)no1 | 98* | nt | nt | -3.1 | nt | nt | nt | 0 | 1 | 3
O=C(NCCCN1CCOCC1)C(=O)NCC1OCCCN1S(=O)(=O)c1cc(F)ccc1F (stereo not drawn) | -3 | 1.4 | i | 2.8 | 2 | -1 | 1.1 | 12 | 0 | -2
Cn1c(SCC(=O)Nc2ccccc2)nc2ccccc2c1=O | 3 | -4.0 | i | 0.8 | 10 | 5 | 1.6 | 5 | -1 | 2
CC1(C)CC(=O)C(C2=NC3(CCCCC3)Cc3ccccc32)=C(O)C1 | -1 | 0.7 | i | -1.6 | -12 | -9 | -0.1 | 10 | -4 | 1

Compound activity (PubChem)
